Screening data (PubChem BioAssay)
S aureus helic: inhibitors of S. aureus replicative helicase, primary screen, biochemical, fluorescence unwinding readout; 0.05% of 120,000 active; replicative DNA helicase (DnaC/DnaB), Staphylococcus aureus; purified S. aureus helicase, fluorescence unwinding assay; about half of the hits fall short of the stated cut; inhibition, %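 (tested at about 80 µM)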;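 active means both duplicates at 50% or more, or one of them with a favoured structure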;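 further: 0% = mean of negative control wells and 100% = mean of positive control wells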
MgrA DNA FP: S. aureus MgrA activity modulators, primary screen, biochemical, S. aureus Newman, fluorescence polarization; 0.13% of 84,000 active; MgrA-DNA binding; inhibition, %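 (about 10 µg/mL by stock and volumes)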;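 active means above 50% in either of two replicates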;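 further: 0% = protein plus DNA without compound and 100% = DNA alone without protein; higher means less MgrA bound to DNA so lower polarization; one replicate is shown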
Active calls of the source: *; x = not tested or not shown. The list is partial; rates above refer to the full screens.

S aureus helic,MgrA DNA FP,mol
14,-0.2,COC(=O)CC12CC3CC(C1)CC(C(=O)OC)(C3)C2
0,x,CN(CC(=O)Nc1ccc(S(=O)(=O)N(C)C)cc1)Cc1ccc(C(F)(F)F)cc1
-6,x,NS(=O)(=O)c1ccc(CCNC(=O)c2ccco2)cc1
-16,x,CC(C)C(=O)Nc1ccc(Cl)c(C(=O)c2ccccc2)c1
-16,x,CC(C)(C)Nc1ncnc2c1cnn2-c1ccccc1
-9,x,Cc1nc(SC(C)C(=O)NCc2ccc3c(c2)OCO3)c2cnn(-c3ccccc3)c2n1 (stereo unspecified)
x,0.8,COc1ccc(Br)c(C(=O)CC#N)c1
x,3.0,CC(C)(C)Sc1ccccc1/C=N/O
13,0.0,O=C(Sc1ccc(Cl)cc1)c1ccco1
-16,x,COc1ccc(C2CC(=O)C3=C(C2)Nc2ccccc2N(C(=O)C2CC2)C3c2cccnc2)cc1OC (stereo unspecified)
x,-2.6,CC(C)SC1OC(CO)C(O)C(O)C1O (stereo unspecified)
10,0.2,CC1CCN(C(=O)CCS(=O)(=O)c2ccc3c(c2)SCC(=O)N3)CC1
6,-0.3,O=S(=O)(NC1CCCCC1n1cc(-c2ccccc2)nn1)c1ccc(Cl)cc1 (stereo unspecified)
9,-0.3,Cc1ccc(C(=O)CSc2nc3ccccc3c(=O)n2Cc2ccco2)cc1
-22,x,Oc1ccc2ccccc2c1CN1CCN(Cc2ccccc2)CC1
8,1.4,O=[n+]1cc(-c2ccccc2)n([O-])c2c1CCCC2
-9,-3.5,COc1ccccc1C1=NOC(C(=O)O)C1 (stereo unspecified)
x,-12,CN(C)/N=C(\Cn1nnc(N2CCCC2)n1)c1ccc(Cl)cc1
7,x,Cc1ccccc1Cn1c(=O)[nH]c2ccccc21
6,x,N#Cc1cccc(NC(=O)CNC(=O)Cc2ccccc2)c1
x,2.8,CC(C)c1cccc(O)c(=O)c1
6,-1.2,Cc1nc(-c2ccccc2)c(CC(=O)O)s1
x,0.1,CC(=O)NC1=NC(=O)/C(=C\c2cccs2)N1C
4,x,Cn1nc(-c2ccc(C(=O)NCCN3CCOCC3)cc2)c2ccccc2c1=O
x,-2.8,O=C(OCc1nccn1Cc1ccc(Cl)cc1)c1ccccc1
8,x,O=C(c1cc(-c2ccco2)on1)N1CCCC1
x,-0.3,N#Cc1c(SC2CCCCC2)sc(C(=O)O)c1-c1ccc(Cl)cc1
-16,x,CC(c1ccccc1)n1c(=S)[nH]c2ccccc21 (stereo unspecified)
18,-3.0,O=C(O)c1ccc(CSc2nnc(Cc3ccccc3)n2-c2ccccc2)cc1
-1,x,C=CCN=C1N=C2SC=CN2C(=O)/C1=C\c1ccccc1
x,2.2,O=C1Nc2ccccc2/C1=C/c1ccccc1N1CCOCC1
0,-1.5,O=C(Nc1ccccc1C(=O)N1CCCC1)C(c1ccccc1)c1ccccc1
2,1.8,N#CCCN(CC1COc2ccccc2O1)C(=O)c1ccccc1 (stereo unspecified)
-10,x,CNC(=O)NC(=O)C(C)Sc1nnc(Nc2ccc(OC)cc2)s1 (stereo unspecified)
-2,x,CCc1cccc(NC(=O)CSc2ncccn2)c1
-22,x,Cc1ccc(-c2noc(CN(C(=O)c3ccc(C)cc3Cl)C(C)C)n2)cc1
6,x,Cc1noc(C)c1/C=C1\N=C(C23CC4CC(CC(C4)C2)C3)OC1=O
4,x,COc1ccc(CN2CC(C(=O)NCc3ccc4c(c3)OCO4)CC2=O)cc1 (stereo unspecified)
-48,6.1,O=C1c2cccc3cccc(c23)N1S(=O)(=O)c1cccs1
3,-1.2,Cn1c(=O)c(=O)n(C)c2cc(S(=O)(=O)NCCOc3ccccc3)ccc21
-2,8.5,COc1ccc2ncc(S(=O)(=O)c3ccc(Cl)cc3)c(N3CCCCC3C)c2c1 (stereo unspecified)
-3,-0.9,COc1ccc(OCC(=O)N2CCc3ccccc3C2)cc1
17,x,COc1ccc2nc(NC(=O)C3CCCCC3)sc2c1
18,x,CSc1nc2ccc3nc(NC(=O)C4=COCCO4)sc3c2s1
-1,-5.9,CNCc1cc(C)[nH]n1
7,5.1,Cc1c(C(=O)N2CCN(C)CC2)oc2c1C1(CCC2)SCCS1
-37,x,O=C(NCCc1ccccc1)c1cc2ccccc2o1
-5,1.8,Cc1ccc(C(=O)OCC(N)=O)s1
x,1.3,CC1(C)Cc2cccc(C(=O)N3CCC(O)(c4ccc(Cl)cc4)CC3)c2O1
-3,-0.8,CC(=O)N1CCC(c2ccc(Cl)cc2)=N1
-1,x,O=C(O)CSCC(=O)Nc1cccc(O)c1
-13,-1.1,CC(C)(C)c1[nH]nc2c1C(c1ccc(OC(=O)c3ccccc3Cl)cc1)C(C#N)=C(N)O2 (stereo unspecified)
-10,x,O=C1NC(=S)NC(=O)C1=CN1CCc2ccccc2C1
11,0.1,COC(=O)c1ccccc1NC(=O)COc1ccc(OC)cc1
6,1.6,COc1ccc(-c2cc(NC(=O)N3CCc4ccccc4C3)c3ccccc3n2)cc1
15,9.2,Cc1nc2c3cc(F)ccc3n(CCN3CCOCC3)c2s1
-36,x,COc1ccccc1NC(=O)C1C(=O)CNC23CCCCC2C1c1ccccc1O3 (stereo unspecified)
8,-4.5,Cc1c(C(=O)NCc2ccccc2)oc2c1C(=O)CCC2
-8,x,O=S(=O)(c1ccccc1)c1cnc2ccccc2c1N1CCCC1
-12,0.6,NC(=O)CSc1nnc(-c2ccccc2)n1-c1ccccc1

Going on with the list:
S aureus helic,MgrA DNA FP,mol
-20,-0.4,O=C(Nc1ccc2cn[nH]c2c1)c1cccc(Oc2ccccc2)c1
x,-0.1,CSCCC(C(=O)O)n1c(O)c(C2=c3cc(Br)ccc3=NC2=O)sc1=S (stereo unspecified)
-10,1.5,COc1cccc(CC(NC(C)=O)C(=O)NC2CCN(c3nc(C)cc(C)n3)CC2)c1OC (stereo unspecified)
-25,x,CSC1=C(C#N)C(c2ccc(OCc3ccccc3)cc2)C2=C(CCCC2=O)N1 (stereo unspecified)
-8,x,O=c1c(Cl)c(Cl)cnn1CN1CCCC1c1nc2ccccc2s1 (stereo unspecified)
22,x,N#Cc1c(N2CCCC2)n[nH]c1N
23,x,Clc1ccc(N=Cc2c(-c3ccccc3)nc3n2CCS3)cc1
3,x,COCCN(Cc1nnc(-c2cccs2)o1)C(=O)c1cc(Cl)c(OC(C)C)c(OC)c1
8,0.5,Cc1ccc(Nc2nnns2)cc1C
-2,x,CCOC(=O)c1c(-c2ccccc2)csc1NC(=O)c1ccccc1C(=O)O
11,x,CCn1c(-c2ccco2)nn(CN2CCN(S(=O)(=O)/C=C/c3ccccc3)CC2)c1=S
10,x,Cc1cccc(N/C=C(\C#N)c2nc(-c3ccc4c(c3)OCO4)cs2)c1
12,-0.8,CC1CCCN(C(=O)COC(=O)/C=C/c2ccccc2Cl)C1 (stereo unspecified)
x,-2.3,O=C(CSc1nnnn1-c1ccc(O)cc1)NCCSCc1ccco1
-10,x,c1nc(N2CCCC2)c2c3c(sc2n1)CCCC3
0,x,COc1ccccc1/C=C1/SC(=O)N(CCC(=O)Nc2ccccc2)C1=O
16,0.7,COc1ccc(-c2nc3ccccc3c(=O)n2CCN2CCOCC2)cc1
0,1.5,C=CCn1c(SCC(=O)Nc2ccc(C)cc2)nnc1C1CC1
-4,x,CCOC(=O)c1sc(N)c(C(=O)OCC)c1CSc1nncs1
x,-0.9,Fc1ccc(-c2cc3ccccc3[nH]2)cc1F
-7,x,CCOc1ccc(-c2cnc3n2CCC3)cc1
2,-1.9,CN(Cc1nc2ccccc2n1C)C(=O)c1ccco1
-1,x,O=C(CSc1nc2ccccc2[nH]c1=O)NCc1ccco1
6,x,Cc1nn(CCC#N)c2nc(-c3cccnc3)cc(C(F)(F)F)c12
8,-2.5,Ic1cccc(-c2nnc(-c3ccccc3)o2)c1
8,x,CCn1c(C(=O)N2CCC(C(=O)N3CCC(Cc4ccccc4)CC3)CC2)cc2sccc21
x,0.3,C=CCN1C(=O)NC(=O)/C(=C/c2ccc(OCc3ccccc3F)c(OCC)c2)C1=O
-8,x,CCOc1ccccc1NC(=O)c1ccc(Cl)cc1
x,-1.1,c1ccc(-c2csc(-c3ccc(-n4cncn4)nc3)n2)cc1
16,4.3,Cc1ccc(-c2nnc(N3CCN(c4ccccn4)CC3)c3ccccc23)cc1
6,x,COc1ccc(NS(=O)(=O)c2ccc(-c3cc(C(F)(F)F)no3)s2)cc1
-12,x,CCOC(=O)CC1=Nn2c(nnc2-c2ccc(OC)cc2)SC1
x,-1.4,COC(=O)C1=C(C)NC(=O)C1CC(=O)O (stereo unspecified)
9,1.1,Cc1ccc(SCC(=O)Nc2ccc3c(c2)n(C)c(=O)n3C)cc1
-18,x,CCOC(=O)c1ccc(CSc2nncn2N)o1
20,x,C=C(C)COc1ccc2c3c(c(=O)oc2c1OCC(=C)C)CCC3
8,-1.8,CCCS(=O)c1ccccc1 (stereo unspecified)
8,x,Cc1nc(C)c(C(=O)NC2CCSc3ccccc32)s1 (stereo unspecified)
11,x,COc1cccc(CNC(=O)CCSCc2ccccc2F)c1
17,-1.6,CC1CC(C)CN(C(=O)c2ccc3c(c2)OCO3)C1 (stereo unspecified)
5,-1.6,Cc1ccc(-c2nnc(SC(=O)OCc3ccccc3)o2)cc1
-1,-1.8,COc1cc(C2NC(=O)NC(C)=C2C(=O)NCc2ccccc2)ccc1OCC(N)=O (stereo unspecified)
x,-1.3,CC1CC(C)CN(S(=O)(=O)c2ccc(C(=O)Nc3nc(-c4cc5ccccc5oc4=O)cs3)cc2)C1 (stereo unspecified)
x,-1.1,Cc1onc(-c2c(Cl)cccc2Cl)c1C(=O)NOC(=O)c1cccs1
10,-13,CCOC(=O)c1cc2oc(C)cc2n1CC(=O)N(C)C1CCCCC1
x,0.6,C=CCOc1ccc(/C=C2\SC(=Nc3ccccc3)NC2=O)cc1OC
0,-5.5,C1CCC(N2CCC(N3CCCCC3)CC2)CC1
12,-1.1,Cc1ccc(S(=O)(=O)c2nnn3c2nc(NCC2CCCO2)c2ccccc23)cc1 (stereo unspecified)
13,x,CCCCN=C1SCC(c2ccc(Br)s2)=NN1C
10,x,CC1CCC2(CC1)NC(=O)N(Nc1ncnc3sccc13)C2=O (stereo unspecified)
0,-0.1,N#CCSc1nc(N2CCOCC2)nc(N2CCOCC2)n1
-11,x,COc1ccc(C(=O)NC(C)c2nc3ccccc3n2C)cc1OC (stereo unspecified)
8,x,CCn1c(Cn2nnc3ccccc3c2=O)nc2cc(S(=O)(=O)N(C)C)ccc21
4,x,Cc1cccc(N(C)C(=O)C(C)Sc2nc3ncccc3o2)c1 (stereo unspecified)
7,x,Nc1nc(Cc2cc3ccccc3[nH]2)nc(NC2CCCCC2)n1
6,-2.6,O=C(Nc1ccccc1)Nc1ccc(N2CCOCC2)cc1
x,-1.8,O=C(O)CC1(CC(=O)Nc2ccccc2-n2cccn2)CCCCC1
10,x,COC(=O)c1cc(OC)c(OC)cc1NC(=O)Nc1ccccc1OC
12,-7.1,CC1CCN(CC(=O)Nc2ccccc2Br)CC1

Of the compounds above, 22 contain an aryl methoxy group:
S aureus helic,MgrA DNA FP,mol
x,0.8,COc1ccc(Br)c(C(=O)CC#N)c1
-16,x,COc1ccc(C2CC(=O)C3=C(C2)Nc2ccccc2N(C(=O)C2CC2)C3c2cccnc2)cc1OC (stereo unspecified)
-9,-3.5,COc1ccccc1C1=NOC(C(=O)O)C1 (stereo unspecified)
-10,x,CNC(=O)NC(=O)C(C)Sc1nnc(Nc2ccc(OC)cc2)s1 (stereo unspecified)
4,x,COc1ccc(CN2CC(C(=O)NCc3ccc4c(c3)OCO4)CC2=O)cc1 (stereo unspecified)
-2,8.5,COc1ccc2ncc(S(=O)(=O)c3ccc(Cl)cc3)c(N3CCCCC3C)c2c1 (stereo unspecified)
-3,-0.9,COc1ccc(OCC(=O)N2CCc3ccccc3C2)cc1
17,x,COc1ccc2nc(NC(=O)C3CCCCC3)sc2c1
11,0.1,COC(=O)c1ccccc1NC(=O)COc1ccc(OC)cc1
6,1.6,COc1ccc(-c2cc(NC(=O)N3CCc4ccccc4C3)c3ccccc3n2)cc1
-36,x,COc1ccccc1NC(=O)C1C(=O)CNC23CCCCC2C1c1ccccc1O3 (stereo unspecified)
-10,1.5,COc1cccc(CC(NC(C)=O)C(=O)NC2CCN(c3nc(C)cc(C)n3)CC2)c1OC (stereo unspecified)
3,x,COCCN(Cc1nnc(-c2cccs2)o1)C(=O)c1cc(Cl)c(OC(C)C)c(OC)c1
0,x,COc1ccccc1/C=C1/SC(=O)N(CCC(=O)Nc2ccccc2)C1=O
16,0.7,COc1ccc(-c2nc3ccccc3c(=O)n2CCN2CCOCC2)cc1
6,x,COc1ccc(NS(=O)(=O)c2ccc(-c3cc(C(F)(F)F)no3)s2)cc1
-12,x,CCOC(=O)CC1=Nn2c(nnc2-c2ccc(OC)cc2)SC1
11,x,COc1cccc(CNC(=O)CCSCc2ccccc2F)c1
-1,-1.8,COc1cc(C2NC(=O)NC(C)=C2C(=O)NCc2ccccc2)ccc1OCC(N)=O (stereo unspecified)
x,0.6,C=CCOc1ccc(/C=C2\SC(=Nc3ccccc3)NC2=O)cc1OC
-11,x,COc1ccc(C(=O)NC(C)c2nc3ccccc3n2C)cc1OC (stereo unspecified)
10,x,COC(=O)c1cc(OC)c(OC)cc1NC(=O)Nc1ccccc1OC

Gathered by group, those above with a tert-butyl group (3)
S aureus helic,MgrA DNA FP,mol
-16,x,CC(C)(C)Nc1ncnc2c1cnn2-c1ccccc1
x,3.0,CC(C)(C)Sc1ccccc1/C=N/O
-13,-1.1,CC(C)(C)c1[nH]nc2c1C(c1ccc(OC(=O)c3ccccc3Cl)cc1)C(C#N)=C(N)O2 (stereo unspecified)
